Screening results (PubChem)
TRPML1 inh: human mucolipin-1 channel inhibition. Q9GZU1. TRPML1-inducible cells, Ca2+ dye fluorescence, FDSS; active compounds read low; inhibition of EC80 agonist-evoked calcium signal. activity change, negative = inhibition, % (test concentration not listed). hit rate 0.02% among 390,000. AID 624415; in the data active means activity change below about -50%; inconclusive means about -30% to -50%; inactive means above about -30%;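 note: stimulus is agonist 54-4 at its EC80 concentration; % is set by controls: 0 for no effect and ±100 for the full control effect; compound concentration not given in the record; the text of the record puts the active cut at -80%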
Target sequence (Q9GZU1 whole entry, looked up): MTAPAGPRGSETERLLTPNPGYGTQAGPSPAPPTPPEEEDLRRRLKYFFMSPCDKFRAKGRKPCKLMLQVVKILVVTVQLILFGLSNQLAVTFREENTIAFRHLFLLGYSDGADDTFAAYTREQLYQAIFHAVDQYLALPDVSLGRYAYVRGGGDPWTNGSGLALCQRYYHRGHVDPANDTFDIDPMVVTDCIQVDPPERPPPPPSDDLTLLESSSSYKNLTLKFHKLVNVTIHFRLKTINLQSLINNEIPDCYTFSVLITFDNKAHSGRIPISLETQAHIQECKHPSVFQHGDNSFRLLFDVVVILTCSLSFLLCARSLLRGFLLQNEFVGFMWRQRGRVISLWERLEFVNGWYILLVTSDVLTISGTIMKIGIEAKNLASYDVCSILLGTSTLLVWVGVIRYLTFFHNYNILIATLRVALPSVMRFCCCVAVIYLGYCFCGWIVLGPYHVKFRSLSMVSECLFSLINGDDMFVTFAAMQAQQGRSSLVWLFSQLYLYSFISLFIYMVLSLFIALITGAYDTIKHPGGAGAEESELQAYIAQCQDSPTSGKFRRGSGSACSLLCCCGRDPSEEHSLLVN
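TRPML1-DL cells, Tet-induced overnight (~16 h, 37 °C) at 1,500 cells/well, were loaded with Ca8 no-wash dye plus quencher for 45-90 min at room temperature. Compounds were pinned during FDSS kinetic reading; agonist 54-4 at EC80 (4 uM final) then added.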
ClpP mod: qHTS Assay for Activators of ClpP | hit rate 1.9% among 340,000 | Potency, µM (highest dose often 57.5 µM), for the others: at the top dose activity change, negative = active | AID 651965, 2013 | ATP-dependent Clp protease proteolytic subunit (Bacillus subtilis (strain 168)), P80244 | purified B. subtilis ClpP, FRET peptide cleavage, 20 min; active = well fitted falling curve with a large enough effect; inconclusive = small, poorly fitted or top-dose-only effect; inactive = no such curve, though single readings can be large or run the other way; note: potency is the fitted concentration of half-maximal effect; the source files actives as falling curves though it sought activators and does not explain the sign; nearly all actives have a fitted effect of over 65% in size; many hits overshoot -100%
Target sequence (P80244 whole entry, looked up): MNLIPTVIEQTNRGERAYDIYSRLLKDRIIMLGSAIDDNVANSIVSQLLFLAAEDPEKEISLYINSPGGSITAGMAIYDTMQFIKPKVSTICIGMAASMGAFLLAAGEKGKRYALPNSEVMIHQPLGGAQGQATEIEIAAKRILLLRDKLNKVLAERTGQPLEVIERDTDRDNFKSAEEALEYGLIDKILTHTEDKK
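Purified B. subtilis ClpP, 10 microg/mL final in Tris/HCl pH8 with KCl, BSA, glycerol and Tween-20, cleaved an Abz/nitrotyrosine-quenched decapeptide. Fluorescence (ex 320, em 430) was read at 0 and 20 min at room temperature. Delta was normalized to 5.8 microM ADEP and DMSO/no-enzyme controls.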
gsp antagonist: antagonists of gsp mutant (McCune-Albright syndrome). AID 624288. gsp-mutant cells, cAMP HTRF, 30 min; control for the full effect not named in the record. hit rate 0.4% among 340,000. Potency, µM (series often up to 76.9 µM), without a hit: top-dose activity change, negative = inhibition, actives largely listed as inhibitors; active = falling curve of any shape with a large fitted effect; inconclusive = falling curve, mostly with a smaller effect; inactive = flat or rising curve; cell line not stated here;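 note: intracellular cAMP measured with PDE inhibitor Ro 20-1724 present during compound exposure; potency is the fitted concentration of half-maximal effect; % is set by controls: 0 for no effect and ±100 for the full control effect; nearly all actives have a fitted effect of over 65% in size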
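HTRF cAMP measurement after 30 min RT detection following 30 min, 37C compound treatment alongside […] (added as 300 uM solution) in G418-selected cells seeded at 2000/well and grown 16–24 h.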
TRPML1 ag: activates the human TRPML1 channel; TRPML1-expressing cells, Ca2+ dye fluorescence, FDSS; host cell line not named in the record; reference of the full effect not given here; activation, % (concentration not given with the values); hit rate 0.12% among 410,000; AID 624414; in the data active = activation above about 50%; inconclusive = about 30% to 50%; inactive = below about 30%; note: 0% is about no effect; the text of the record puts the active cut at 80%
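Cells: TRPML1-DL, 1X Tet inducer, ~16 h at 37 degrees C/5% CO2. Dye: ABD Ca8 no-wash + quencher, 45-90 min RT. Read: 10 s baseline, compound add, 110 s agonist phase; 54-4 EC80 (4uM final), 110 s antagonist phase.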
gsp agonist: gsp mutant agonism | gsp mutant cells, cAMP HTRF, 30 min; control for the full effect not named in the record | Potency, µM (top dose mostly 76.9 µM), for the others: at the top dose activation (cAMP increase), usual class: activators | hit rate 0.13% among 340,000 | AID 624287; active = well fitted activation curve with a large enough effect; inconclusive = small, poorly fitted or top-dose-only effect, or another doubt; inactive = no such curve, though single readings can be large or run the other way; cell line not stated here;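 note: phosphodiesterase inhibitor Ro 20-1724 added with compounds to block cAMP breakdown; potency is the fitted concentration of half-maximal effect; nearly all actives have a fitted effect of over 60% in size; about a fifth of the inactives were tested at one dose only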
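Cells stably selected in G418 were plated at 2000/well, grown 16-24 hr, then given compounds in DMSO with the PDE inhibitor […] (300 uM solution added) for 30 min at 37C; cAMP was read by HTRF.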
Menin-MLL FL inh: inhibitors of human menin-MLL interaction, wild-type MLL peptide. Fluorescence polarization, fluorescein-MLL peptide displacement from menin. 290,000 tested, under 10 active. FP activity change, % at 61.4 µM; inconclusive = falling polarisation curve, or a change in total fluorescence; inactive = total fluorescence flat and polarisation flat or rising; no compound was filed as active; the % refers to the polarisation; negative = inhibition;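 note: % of control where 0% means no effect; inhibitors lower the polarisation; unlabelled MLL peptide was the positive control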
Active calls of the source: *; u = inconclusive; x = not tested or not shown; & = joins results of further samples; [ ] = remark or other dose. Rows were taken by chance; 2.1% or so of the library scored in one or more.

Below each compound: ClpP mod, gsp antagonist, TRPML1 inh, gsp agonist, TRPML1 ag, Menin-MLL FL inh
(1) CN(CCCNS(=O)(=O)c1cccc2cccnc12)Cc1ccccc1
    0.7%, 8%, 2, -4%, -0.1, -7.0
(2) CCOC(=O)c1sc(NC(=O)CSc2nnnn2-c2ccccc2)nc1C
    0.7%, -8%, -6, -6%, 2.8, 1.3
(3) COc1ccccc1CCNC(=O)Cc1c(C)c2cc(Cl)c(O)cc2oc1=O
    4.3%, x, 5, x, -0.1, x
(4) COc1ccc(OC)c(-n2c(=O)[nH]c3cc(C(=O)NCCc4ccc(OC)c(OC)c4)ccc3c2=O)c1
    0.8%, x, 8, x, -0.8, x
(5) CC(=O)c1c(Nc2ccccc2)sc(C(=O)c2ccccc2)c1C
    -5.3%, -13%, -5, -12%, 1.8, 1.4
(6) O=C(N/N=C1/CCSC1)c1cccc([N+](=O)[O-])c1
    -0.5%, 14%, -5, -52%[inhibitor], 0.2, 5.0
(7) Cc1cc(C)cc(OCC(=O)NNC(=O)CCC(=O)NCc2ccccc2)c1
    -1.6%, 9%, -7, -12%, -0.2, -0.8
(8) CCOC(=O)c1sc(=NC(=O)c2ccc(Br)cc2)n(C)c1C
    -10%, -10%, -10, u, -0.1, x
(9) Cc1ccccc1OCCC(=O)OCC(=O)NNC(=O)c1cccs1
    -0.8%, 6%, 11, -21%, -0.4, x
(10) COC(=O)N(C)C[C@H]1OCc2cnnn2CCCC(=O)N([C@@H](C)CO)C[C@@H]1C
    -0.4%, x, 0, 3%, 0.0, x
(11) O=C1NC2(CCN(Cc3ccccc3)CC2)Oc2ccccc21
    -3.9%, 3%, 3, -28%, 2.5, -2.0
(12) Cc1cc(C)cc(N(C(=O)c2csnn2)C(C(=O)NC(C)(C)C)c2cccs2)c1 (stereo unspecified)
    -1.2%, 6%, 20, -51%[inhibitor], 0.8, 3.7
(13) O=[N+]([O-])c1ccc(S(=O)(=O)Nc2ccc(-c3ccccc3)cc2)cc1
    -3.0%, x, -3, -3%, -0.2, x
(14) c1ccc(C(c2nnnn2C2CCCCC2)N2CCc3ccccc3C2)nc1 (stereo unspecified)
    2.5µM*, 4%, -11, u, 4.6, 0.8
(15) CC(=O)Nc1ccc2c(CN3C(=O)NC(C)(c4ccc(C)cc4)C3=O)cc(=O)oc2c1 (stereo unspecified)
    -0.7%, 6%, -10, -3%[15.4 µM], -1.0, 4.3
(16) COc1ccc(-c2ccc3nnc(SCC(=O)N4CCCC4)n3n2)cc1
    u, 10%, 6, 1%, 0.5, x
(17) COc1ccc(C2CC(=O)N3CN(c4ccc(C)c(Cl)c4)CSC3=C2C#N)cc1 (stereo unspecified)
    20%, -12%, 7, 22%, 0.4, 16
(18) CCOC(=O)[C@@H]1[C@H]2COc3ccccc3[C@H]2N2C(=O)N(c3ccccc3)C(=O)[C@]12C
    -0.9%, -5%, 11, x, -1.0, -1.5
(19) Nc1cc(=O)[nH]c(=O)n1-c1cccc(F)c1
    x, 5%, -4, -8%[15.4 µM], 0.0, -2.2
(20) Cc1nc(N2CCN(c3ccccn3)CC2)c2c(C)c(C(=O)Nc3c(C)cc(Br)cc3C)sc2n1
    u, -14%, -2, u, 0.0, 5.4
(21) NC(=O)/C=C\C(=O)Nc1cccc(C(F)(F)F)c1
    -2.2%, 0%, -4, 11%, 0.6, 4.0
(22) O=C(c1cccs1)N1CCCc2cc(NS(=O)(=O)c3ccc(F)cc3F)ccc21
    -1.7%, x, -11, x, -1.3, x
(23) Cc1oc2cc3oc(=O)c(CCC(=O)NC4CC4)c(C)c3cc2c1C
    -27%, u, x, x, x, -2.2
(24) CC(=O)C1=C(O)C(=O)N(c2cccc(C(=O)O)c2)C1c1ccccc1F (stereo unspecified)
    5.2%, -8%, -11, u, 1.3, -0.1
(25) S=C(Nc1ccccc1)NC1CCN(Cc2ccccc2)CC1
    x, 14%, 2, -22%[15.4 µM], 1.7, -7.6
(26) CCCCCn1c(CN2CC(C)OC(C)C2)nc2c1c(=O)n(C)c(=O)n2C (stereo unspecified)
    -4.4%, 5%, -15, 5%, 0.1, 2.4
(27) Cn1cc(CN2CCCC(C(=O)c3cccs3)C2)c(-c2cccc(Cl)c2)n1 (stereo unspecified)
    x, -7%, 0, u, -0.9, 2.9
(28) CC(C1=C(CCN(C)C)Cc2ccccc21)c1ccccn1 (stereo unspecified)
    32µM*, 11%, -2, -6%, -0.6, x
(29) COc1ccc(-n2ncc(Cl)c(Cl)c2=O)cc1
    x, -13%, -9, -1%[15.4 µM], -0.9, -6.3
(30) COc1ccccc1N(C)S(=O)(=O)c1ccc(C(=O)NC2=NCCS2)cc1
    -2.1%, -2%, 11, -45%[inhibitor], -0.5, 2.6

(further entries)
Below each compound: ClpP mod, gsp antagonist, TRPML1 inh, gsp agonist, TRPML1 ag, Menin-MLL FL inh
(31) Cc1sc2nc(CSCC(=O)N(C)CC(=O)Nc3ccc(F)cc3)[nH]c(=O)c2c1C
    0.2%, -3%, 20, 20%, -0.1, x
(32) Cc1ccc(NC(=O)Cn2cc(C(=O)c3ccco3)c3ccccc32)cc1
    -4.7%, x, -6, x, -0.5, x
(33) CCN1C/C(=C/c2cccc([N+](=O)[O-])c2)C(=O)/C(=C/c2cccc([N+](=O)[O-])c2)C1
    -3.0%, 12%, -18, 6%, 0.1, 1.6
(34) O=C(CNS(=O)(=O)c1ccc2ccccc2c1)Nc1ccc(F)c(F)c1F
    0.2%, -6%, -6, 2%, 3.6, x
(35) CCOC(=O)NC1(C(F)(F)F)N=C(c2ccccc2)NC1=O (stereo unspecified)
    -1.9%, -9%[15.4 µM], -24, 2%, 0.4, 2.2
(36) CCN1CCN(c2ccccc2NC(=O)c2ccc(-n3cccn3)cc2)CC1
    -1.4%, -1%, 29, 13%, 0.2, x
(37) COCCCNC(=O)CCSc1ccc(C)cc1
    -1.4%, 11%, -9, -1%[15.4 µM], -0.1, 2.0
(38) Cc1ccc(C)c(NC(=O)COC(=O)c2c(C)nn(-c3ccccc3)c2C)c1
    1.1%, -16%, 14, -1%, 2.1, x
(39) CN(C)c1ccc(NC(=S)NC(=O)/C=C/c2ccc(Cl)cc2)cc1
    2.7%, -4%, -11, 1%, -0.8, 7.5
(40) CC(=O)c1cccc(Nc2nc(-c3cccnc3)cs2)c1
    x, -10%, -4, -41%, 2.3, -8.7
(41) Cc1sc2ccccc2[n+]1CCC(C)S(=O)(=O)[O-] (stereo unspecified)
    -0.5%, 14%, -15, 40%, -0.4, 5.0
(42) COc1ccc(OC)c2sc(N3CCCCC3)nc12
    -1.6%, -4%, -17, 26%, 0.1, 1.0
(43) CCC(C)N(C(=O)COc1ccc(Cl)c2cccnc12)C1CCS(=O)(=O)C1 (stereo unspecified)
    -22%, -2%, -4, 13%, 0.4, x
(44) CC1CC(C)CN(C(=O)CCC(=O)Nc2nnc(C(C)C)s2)C1 (stereo unspecified)
    x, 4%, 29, 21%, 0.7, -4.7
(45) O=C(NC(=S)NC1CCCCC1)c1ccc(Cl)cc1
    -0.6%, -6%, 19, 20%, 0.0, x
(46) COc1cccc(N2CCN(C(=O)C3CCN(S(=O)(=O)c4c(C)noc4/C=C/c4ccccc4F)CC3)CC2)c1
    -7.8%, x, 40, x, 0.2, x
(47) O=C(c1cnsn1)N1CCC(CO)(Cc2ccc(Cl)cc2)CC1
    x, -13%, 25, 3%[15.4 µM], 0.2, 0.5
(48) CCn1c2ccccc2c2cc(NC(=O)COc3ccc(OC)cc3)ccc21
    u, 10%, -6, -5%, 0.2, -0.8
(49) NC(=O)Cc1ccc(C(=O)c2ccccc2)s1
    x, 1%, -9, -29%, 0.5, -4.3
(50) CCOC(=O)c1cc(NC(=O)Nc2ccccn2)c(C)nc1C
    -1.6%, -13%, -10, -29%, 1.9, -0.2
(51) Cc1cccc(OCC(=O)N/N=C/c2cn[nH]c2-c2ccc(Cl)c(Cl)c2)c1
    0.5%, u, 6, -4%[15.4 µM], -0.1, 7.6
(52) CCOC(=O)Cn1cc(-c2ccccc2)nn1
    -0.5%, 14%, 12, -44%[inhibitor], 5.1, 0.0
(53) O=C(N/N=C/C=C/c1ccco1)c1ccncc1
    x, -11%, 2, -13%, 0.4, 5.7
(54) Cn1c(=O)[nH]c(=O)c2c1nc(N1CCCCC1)n2CCCSc1nnnn1-c1ccccc1
    2.0%, -12%, -6, -3%, -1.1, 2.7
(55) CCCCN(C(=O)c1ccc2c(c1)OCCO2)c1c(N)n(CC(C)C)c(=O)[nH]c1=O
    -3.9%, 10%, 8, -3%, -0.4, x
(56) C=CCNC(=S)N/N=C/c1ccc(C(F)(F)F)cc1
    1.8%, -12%, -13, -17%, 3.5, -5.0
(57) C[C@@]12C(=O)Nc3ccc(Cl)cc3C(=O)N1[C@H]1c3ccccc3OC[C@@H]1[C@@H]2c1ccccc1
    -24%, -10%, 39, 18%, -0.6, x
(58) Cc1ccc(-n2c(SCC(N)=O)nc3c([nH]c4ccccc43)c2=O)cc1
    -16%&-15%, -7%, -6&42, 14%, 0.0&0.6, 3.5
(59) CC1(C)CC(NC(=O)c2ccc(Cl)cc2Cl)CC(C)(C)N1
    x, 11%, -11, -2%, -0.6, -3.7
(60) O=C1NC[C@H](Cc2ccccc2)N(CC2CCCCC2)C1=O
    0.0%, 2%, 2, -8%, -0.6, -1.6

Further entries
Below each compound: ClpP mod, gsp antagonist, TRPML1 inh, gsp agonist, TRPML1 ag, Menin-MLL FL inh
(61) O=C(Nc1nccs1)C1(S(=O)(=O)c2ccc(Cl)cc2)CC1
    0.4%, -27%, 21, -4%, -0.4, 4.1
(62) O=C(NC1CCCCC1)C(c1cccnc1)N(CCc1ccccc1)C(=O)Cc1cccs1 (stereo unspecified)
    -1.3%, -5%, -2, -11%, 2.4, 3.2
(63) CC(C)NC(=O)[C@@H]1C[C@@]1(C)[C@@H](NC(=O)OCc1ccccc1)c1ccccc1
    -0.2%, 6%, -13, x, 0.7, -1.0&-4.7
(64) Cc1cccc(N2C(=O)CC(Sc3ccccc3C(=O)O)C2=O)c1 (stereo unspecified)
    1.6%, 3%, -2, 3%, -0.6, -2.6
(65) COc1cccc(NC(=O)CNC(=O)c2ccccc2)c1
    -2.5%, 6%, 17, 2%, -0.2, 1.1
(66) COc1ccc(CCNC(=O)CN2CCCc3ccccc32)cc1OC
    -2.6%, 1%, 17, -33%[inhibitor], -0.5, u
